# Assay outcomes deposited in PubChem by National Center for Advancing Translational Sciences (NCATS).
# TRPML1 blocker: inhibitors of human TRPML1 channel. Q9GZU1. TRPML1-inducible cells, Ca2+ dye fluorescence, FDSS; hits give low values; inhibition of EC80 agonist-evoked calcium signal. activity change, negative = inhibition, % (concentration not given with the values). 390,000 compounds, 0.02% hits; in the data active means activity change below about -50%; inconclusive means about -30% to -50%; inactive means above about -30%;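 also: stimulus is agonist 54-4 at its EC80 concentration; % is scaled to controls: 0 for no effect and ±100 for the full control effect; the text of the record puts the active cut at -80%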
# Target sequence (Q9GZU1 whole entry, looked up): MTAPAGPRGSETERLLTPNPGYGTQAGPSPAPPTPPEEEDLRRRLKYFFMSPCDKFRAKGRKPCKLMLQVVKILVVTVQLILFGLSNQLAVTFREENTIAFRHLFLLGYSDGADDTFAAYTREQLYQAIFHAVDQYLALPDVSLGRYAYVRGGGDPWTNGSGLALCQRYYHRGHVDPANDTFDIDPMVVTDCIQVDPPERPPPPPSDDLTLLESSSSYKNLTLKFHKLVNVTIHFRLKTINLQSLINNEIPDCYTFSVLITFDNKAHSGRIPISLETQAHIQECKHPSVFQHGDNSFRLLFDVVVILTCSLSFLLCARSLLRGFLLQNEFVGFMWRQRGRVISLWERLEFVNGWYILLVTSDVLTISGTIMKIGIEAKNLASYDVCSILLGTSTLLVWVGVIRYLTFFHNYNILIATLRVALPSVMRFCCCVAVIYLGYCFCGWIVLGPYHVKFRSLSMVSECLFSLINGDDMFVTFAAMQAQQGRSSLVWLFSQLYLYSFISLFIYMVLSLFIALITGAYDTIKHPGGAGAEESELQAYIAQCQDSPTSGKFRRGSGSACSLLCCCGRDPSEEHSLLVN
#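 Calcium fluorescence in TRPML1-DL cells induced overnight with Tet: a 110 s read after compound pin addition, then a 110 s antagonist read after challenge with 54-4 at 4 uM final (EC80).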
# gsp ag: gsp mutant agonism. gsp mutant cells, cAMP HTRF, 30 min; control for the full effect not named in the record. 340,000 compounds, 0.13% hits. Potency, µM (highest dose often 76.9 µM), for inactives: top-dose activation (cAMP increase), hits mostly activators; active = well fitted activation curve with a large enough effect; inconclusive = small, poorly fitted or top-dose-only effect, or another doubt; inactive = no such curve, though single readings can be large or run the other way; cell line not stated here;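 also: phosphodiesterase inhibitor Ro 20-1724 added with compounds to block cAMP breakdown; potency is read from the fitted curve at half-maximal effect; nearly all actives have a fitted effect of over 60% in size; about a fifth of the inactives were tested at one dose only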
#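 Cells in DMEM/10% FBS with G418 were pretreated with compounds in DMSO plus […] (300 uM stock) for 30 min at 37C. cAMP was measured by HTRF (cAMP-d2 plus anti-cAMP antibody-K) after 30 min at room temperature.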
# gsp antagonist: gsp mutant antagonism; gsp-mutant cells, cAMP HTRF, 30 min; control for the full effect not named in the record; Potency, µM (titrated, usually from 76.9 µM), for inactives: at the highest dose activity change, negative = inhibition, actives largely listed as inhibitors; 340,000 compounds, 0.4% hits; AID 624288; active = falling curve of any shape with a large fitted effect; inconclusive = falling curve, mostly with a smaller effect; inactive = flat or rising curve; cell line not stated here;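 also: intracellular cAMP measured with PDE inhibitor Ro 20-1724 present during compound exposure; potency is read from the fitted curve at half-maximal effect; % is scaled to controls: 0 for no effect and ±100 for the full control effect; nearly all actives have a fitted effect of over 65% in size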
#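 HTRF cAMP read-out (cAMP-d2 plus anti-cAMP antibody-K in lysis buffer, 30 min RT). Before lysis, cells are exposed to compounds with […] for 30 min at 37C in DPBS containing Ca/Mg, BSA and Tween 20.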
# Sfp inh: Sfp phosphopantetheinyl transferase inhibition. Q9F4F7. Biochemical Sfp PPTase activity, qHTS. Potency, µM, for inactives: max response, negative = inhibition, most hits filed as inhibitors. 310,000 compounds, 3.5% hits; active = well fitted inhibition curve with a large enough effect; inconclusive = small, poorly fitted or top-dose-only effect, or another doubt; inactive = no such curve, though single readings can be large or run the other way;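 also: the enzyme is Sfp with the accession as filed and its product quenches rhodamine fluorescence; potency is read from the fitted curve at half-maximal effect; 0% = enzyme reaction without inhibitor and -100% = no enzyme wells; top concentration of the series not given in the record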
#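 After 15 min at room temperature with compound, 15 nM Sfp received 5 uM rhodamine-CoA plus 12.5 uM BHQ-2-ybbR (50 mM Hepes pH 7.6, 10 mM MgCl2). Rate came from the fluorescence difference over 30 min, ex 525/em 598 nm.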
# TRPV1 potentiator: enhances activation of the human vanilloid receptor TRPV1. Q8NER1. TRPV1-expressing cells, Fluo-8 calcium influx, capsaicin EC20 potentiation; host cell line not named in the record; control for the full effect not named in the record. potentiation, % at 8.33 µM. 320,000 compounds, 0.02% hits. AID 540277; active means potentiation above 80%; inconclusive means 30% to 80%; inactive means below 30%; also: 0% is about no effect
#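 TRPV1-expressing cells were cultured overnight at 35.5C and loaded with Fluo-8 calcium dye for 40 to 90 min at room temperature. After a 10 s baseline, compound was added and calcium influx was read kinetically for 3 min (ex 480/em 520 nm).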
# Menin-MLL FL inh: displaces fluorescein MLL peptide from human menin; Fluorescence polarization, fluorescein-MLL peptide displacement from menin; FP activity change, % at 61.4 µM; 290,000 tested, under 10 active; inconclusive = falling polarisation curve, or a change in total fluorescence; inactive = total fluorescence flat and polarisation flat or rising; no compound was filed as active; the % refers to the polarisation; negative = inhibition;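 also: % of control where 0% means no effect; inhibitors lower the polarisation; unlabelled MLL peptide was the positive control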
# ClpP mod: qHTS Assay for Activators of ClpP. purified B. subtilis ClpP, FRET peptide cleavage, 20 min. AID 651965, 2013. Potency, µM (top dose mostly 57.5 µM), inactives show at the highest dose activity change, negative = active. 340,000 compounds, 1.9% hits; active = well fitted falling curve with a large enough effect; inconclusive = small, poorly fitted or top-dose-only effect; inactive = no such curve, though single readings can be large or run the other way; also: potency is read from the fitted curve at half-maximal effect; the source files actives as falling curves though it sought activators and does not explain the sign; nearly all actives have a fitted effect of over 65% in size; many hits overshoot -100%
# Target sequence (P80244 whole entry, looked up): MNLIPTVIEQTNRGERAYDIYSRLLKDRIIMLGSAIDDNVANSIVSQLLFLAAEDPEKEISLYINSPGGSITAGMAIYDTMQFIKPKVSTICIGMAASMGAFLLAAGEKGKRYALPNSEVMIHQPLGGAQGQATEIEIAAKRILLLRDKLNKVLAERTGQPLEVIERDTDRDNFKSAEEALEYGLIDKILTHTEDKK
#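 Purified B. subtilis ClpP, 10 microg/mL final in Tris/HCl pH8 with KCl, BSA, glycerol and Tween-20, cleaved an Abz/nitrotyrosine-quenched decapeptide. Fluorescence (ex 320, em 430) was read at 0 and 20 min at room temperature. Delta was normalized to 5.8 microM ADEP and DMSO/no-enzyme controls.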
# * marks the source's active call; other numbers are inactive results; ? = inconclusive; nt = no result given; [ ] = dose if it differs, or a comment.
SMILES,TRPML1 blocker,gsp ag,gsp antagonist,Sfp inh,TRPV1 potentiator,Menin-MLL FL inh,ClpP mod
COC(=O)c1c(NC(=O)CN2C(=O)NC3(CCCCC3C)C2=O)sc2c1CCC2 (stereo not given),17,21%,-13%,nt,?,nt,-24%
COc1cccc(CNC(=O)C(C(=O)NCc2cccc(OC)c2)c2ncc(C(F)(F)F)cc2Cl)c1,5,4%,1%,10%,8,-5.4,nt
CC(=NNC(N)=S)c1ccc2cc3c(cc2c1)OCO3,-12,20%,nt,nt,nt,nt,-4.7%
CCCCc1cc2c(s1)CCCC/C2=N/O,-9,-1%,-4%,-1%,-5,2.9,-3.0%
NC(=O)CSc1nc2cccnc2n1-c1ccc(F)cc1,25,19%[15.4 µM],-6%,5%,-2,6.2,-0.2%
NC(CO)C(O)c1ccc([N+](=O)[O-])cc1 (stereo not given),nt,nt,-1%,10%,?,-2.4,-1.9%
Cc1ccc(OCCOC(=O)CN2C(=O)NC3(CCCC3)C2=O)cc1,-12,-3%[15.4 µM],-12%,nt,-2,nt,-2.7%
CC(C)(C)NC(=O)CSc1nc(-c2ccccc2)cc(=O)[nH]1,-1,2%,-20%,34%[activator],-4,4.6,nt
CCN(C(=O)N(CC)c1ccccc1)c1ccccc1,0,nt,3%,nt,-4,nt,1.0%
CCOC(=O)c1c(C)[nH]c(C(=O)OCc2c(C)noc2C)c1C,15,-24%,-5%,-5%,-21,-1.6,0.8%
CCNC(=S)/N=C(/Nc1ccc(OC)cc1)Nc1nc(C)cc(C)n1,-1,1%[15.4 µM],11%,3.2µM*,1,-0.1,0.1%
Cc1cccc(N2CCN(C(=O)N3CCCCC3)CC2)c1C,9,-12%[15.4 µM],-3%,22%,-2,3.1,nt
CCN(CC)C(=O)C(C)N(C#N)c1nc(Cl)nc(N(C)C)n1 (stereo not given),14,4%,-3%,14%,5,-1.8,-1.5%
CC(O)C(O)C(O)C(O)/C=N/NC(=O)c1ccccc1 (stereo not given),-12,11%[15.4 µM],-3%,2%,10,0.1,nt
COc1ccc(NC(=S)NCCCN2CCCC2)cc1Cl,9,3%[15.4 µM],-4%,20µM*,-3,-1.3,nt
CC1CCC(NC(=O)c2nn(C)c3c2CS(=O)(=O)c2ccccc2-3)CC1 (stereo not given),15,5%,-6%,8%,-20,nt,-13%
CC(CCc1ccco1)N(C)S(=O)(=O)c1csc(C(N)=O)c1 (stereo not given),11,?,-30%,7%,11,nt,0.3%
CCOC(=O)c1ccc(CC(=O)c2ccc(O)cc2O)o1,40,15%,8.9µM*,1%,5,15,-2.6%
O=C(NC1CCCCC1)N(C1=NCCCCC1)c1ccc(Br)cc1,7,?,-2%,10%,-7,1.4,-2.6%
CCOc1ccc(C(=O)NCC(=O)OCc2ccc(F)cc2Cl)cc1,-19,20%,-9%,17%,-3,-0.3,-1.1%
COc1ccc(Cl)cc1NC(=O)c1sc2nc(C)nc(N3CCOCC3)c2c1C,-8,29%,-5%,5%,3,2.4,0.7%
COc1ccc(C2CC(C(F)(F)F)n3nc(C(=O)O)cc3N2)cc1 (stereo not given),nt,18%,5%,11%,9,-0.2,0.1%
C=CCOc1ccc(/C=N/N2C(=O)C(CC(=O)Nc3ccc(F)cc3F)SC2=NC)cc1 (stereo not given),5,10%,-5%,?,-15,-0.5,-2.0%
O=C(NC1CC(=O)N(c2ccccc2)C1)C(=O)c1c[nH]c2ccccc12 (stereo not given),-12,-27%,-1%,nt,28,nt,-1.4%
COc1ccccc1S(=O)(=O)N(C)C[C@@H]1Oc2cc(C#CCC(C)C)ccc2S(=O)(=O)N([C@H](C)CO)C[C@@H]1C,-10,25%,nt,nt,nt,nt,-2.0%
O=C(CNC(=O)Cc1ccc(Cl)cc1)NCC(=O)N1CCCCC1,-13,?,0%,17%,-2,nt,1.3%
CS(=O)(=O)N(Cc1ccc(Cl)cc1)c1ccc(C(=O)NCCSc2ccccn2)cc1,-22,-6%,-5%,13%,-6,1.5,-3.3%
O=S1(=O)c2c(F)cccc2OC(COCc2ccccc2)CN1C1CCCC1 (stereo not given),60,nt,-5%,nt,nt,nt,-2.4%
Cc1ccccc1S(=O)Cc1ccc(C(=O)NC2CCN(Cc3ccccc3)CC2)o1 (stereo not given),6,8%,7%,15%,3,nt,0.3%
CCOC(=O)c1[nH]c2ccc(Br)cc2c1NC(=O)CCN1CCOCC1,-2,?,1%,1%,-8,3.0,-11%
CCN1/C(=C/C(C)=C/c2sc3ccccc3[n+]2CC)Sc2ccccc21,-10,-93%[inhibitor],35µM*,32µM*,-1,?,0.9%
CC(C)(C)c1ccc(/C=C(\c2nc3ccccc3[nH]2)S(=O)(=O)c2ccccc2)cc1,nt,-25%,-27%,nt,nt,nt,-0.7%
Cc1cccc(-c2noc(CCCC(=O)Nc3ccc(C(N)=O)cc3)n2)c1,20,-2%,1%,24%,-18,6.4,0.6%
COC(=O)c1cc(Cl)c(NC(=O)/C=C/c2ccc(OC)cc2)cc1OC,30,4%,9%,-25%,-4,-0.7,?
CSc1ccc(OCC(=O)Nc2ccc(N3CCOCC3)c(Cl)c2)cc1,-15,-12%,-15%,9%,-4,-1.0,-1.0%
CC1C(=O)Nc2ccccc2N1C(=O)C1CC1 (stereo not given),23,3%,-8%,12%,-8,3.2,4.2%
CCC(=O)Nc1ccc2c(c1)nc(CCN1CCC(C)CC1)n2C,-15,-89%[inhibitor],-7%,-9%,-1,3.0,-2.2%
Cc1c(C(=O)c2ccccc2C(=O)O)sc2ccccc12,27,30%[15.4 µM],6%,12%,23,-5.3,nt
CCN(c1ccccc1)S(=O)(=O)c1cc(CN2C(=O)c3cccnc3C2=O)ccc1OC,-10,?,4%,6%,7,-1.3,-0.2%
O=C(/C=C/c1ccc2c(c1)OCO2)Nc1c(C(=O)O)[nH]c2ccccc12,-14,-14%[15.4 µM],12%,6%,-5,-2.4,1.9%
O=C(Nc1cccc(C(F)(F)F)c1)Oc1ccccc1N1CCOCC1,-20,19%,6%,9%,0,2.1,nt
Cc1ccc(C(=O)N/C(=C/c2ccc(-c3cccc([N+](=O)[O-])c3)o2)C(=O)NC(C)(C)C)cc1,1,-20%[15.4 µM],-15%,11%,-4,5.9,4.3%
O=C(/C=C/N1CCOCC1)c1cc2ccccc2o1,11,-10%,1%,-6%,-1,3.8,-1.7%
CNC(=S)NCCCc1ccccc1,6,2%,4%,-22%,-25,-0.3,1.1%
c1cncc(Oc2cccc(Oc3cccnc3)c2)c1,-11,18%,-7%,14%,14,-8.0,1.2%
O=C(CC(=O)N/N=C/c1ccccc1O)NCc1cccnc1,11,-37%[inhibitor],0%,4%,-8,4.2,?
FC(F)(F)c1cccc(Cc2noc(CN3CCC(c4ccncc4)CC3)n2)c1,-3,-1%,-14%,9%,1,0.8,nt
COc1cccc(-n2c(C)c(C(C)=O)c(C(C)=O)c2C)c1,7,-16%,8%,16%,0,0.8,1.0%
CCn1cc(C(=O)O)c(=O)c2cc(F)c(N3CCN(C(=S)NC(=O)c4c(OC)cccc4OC)CC3)cc21,-5,13%[15.4 µM],-19%,-17%,17,1.7,nt
CCOC(=O)CNc1nc(-c2ccncc2)nc2ccccc12,-4,-56%[inhibitor],-18%,14%,-14,3.0,-1.5%
CCc1nc(NCCO)c(C#N)c2c1CCCC2,-5,34%,8%,-1%,14,-0.4,3.3%
O=C(NN=Cc1ccccc1OC(F)F)c1cccc(S(=O)(=O)N2CCCC2)c1,-8,-1%,-14%,nt,nt,nt,-2.6%
O=C(NCc1ccco1)c1ccc(C(=O)NCc2ccco2)s1,-7,-5%,15%,-4%,3,0.1,1.1%
COc1ccc(/C(N)=N/OC(=O)Cc2ccccc2[N+](=O)[O-])cc1,18,-2%,7%,-12%,-3,9.0,3.1%
CC(=O)Oc1ccc(-c2csc(Nc3ccccn3)n2)cc1,0,-37%[inhibitor],nt,nt,nt,nt,-6.1%
O=C(Oc1ccc2c3c(c(=O)oc2c1)CCC3)c1ccco1,13,?,4%,4%,-6,1.1,462%
Cc1cc(C(F)F)n2ncc(C(=O)O)c2n1,5,-19%,0%,6%,-29,5.7,0.0%
Cc1ccc(/C(N)=N/OC(=O)c2ccco2)cc1,2,-7%,3%,0%,0,1.5,0.0%
CSc1ccc(S(=O)(=O)NCC(=O)OCC(=O)N(Cc2ccccc2)C(C)C)cc1[N+](=O)[O-],11,-14%[15.4 µM],-30%,nt,7,nt,nt
O=C(NCC1CCCO1)c1ccc2c(=O)n(CCc3ccccc3)c(=O)[nH]c2c1 (stereo not given),-2,2%,9%,18%,2,1.0,?

# 2 records picked at random from the list so far, as already listed:
SMILES,TRPML1 blocker,gsp ag,gsp antagonist,Sfp inh,TRPV1 potentiator,Menin-MLL FL inh,ClpP mod
Cc1cc(C(F)F)n2ncc(C(=O)O)c2n1,5,-19%,0%,6%,-29,5.7,0.0%
CCc1nc(NCCO)c(C#N)c2c1CCCC2,-5,34%,8%,-1%,14,-0.4,3.3%

# The list continues.
SMILES,TRPML1 blocker,gsp ag,gsp antagonist,Sfp inh,TRPV1 potentiator,Menin-MLL FL inh,ClpP mod
O=S1(=O)CCC(NS(=O)(=O)c2cccc3cccnc23)C1 (stereo not given),18,?,1%,17%,1,4.3,-3.3%
N=c1c(S(=O)(=O)c2ccccc2)cc2c(=O)n3ccccc3nc2n1CC1CCCO1 (stereo not given),-9,?,-1%,10%,-2,3.2,?
COCCCNC(=O)[C@H](Cc1c[nH]c2ccccc12)NC(=O)OCc1ccccc1,21,-36%[inhibitor],6%,9%,-1,-2.3,-2.0%
CCn1c(SCC(=O)NC(=O)NC(C)(C)C)nc2ccccc21,3,4%[15.4 µM],-2%,3%,8,2.7,nt
COc1cc(NC(=O)c2cccc(C)c2)ccc1NC(=O)c1cc2ccccc2o1,15,?,-1%,20%,15,-1.8,-5.0%
O=C(O)CSc1nnc(COc2ccc([N+](=O)[O-])cc2)n1-c1ccccc1,6,-7%[15.4 µM],7%,19%,3,4.5,?
Cc1nn(Cc2ccc(F)cc2)c(Cl)c1/C=N/NC(=O)c1cccnc1,38,-69%[inhibitor],1%,0%,-3,5.7,0.3%
